StopGo reporter = FMDV 2A StopGo reporter, luciferase signal; Potency, µM (doses to about 57.9 µM), for the others: at the top dose signal change, negative = less light; 410,000 compounds, 1.2% hits; human cells with a luciferase reporter of 2A StopGo recoding; control for the full effect not named in the record; AID 1159524; active = well fitted falling curve with a large enough effect; inconclusive = small, poorly fitted or top-dose-only effect; inactive = no such curve, though single readings can be large or run the other way; tested in HEK293T cells; also: % is scaled to controls: 0 for no effect and ±100 for the full control effect; nearly all actives have a fitted effect of over 45% in size; luciferase light after 4 h
NS1 inh = inhibitors of influenza NS1 protein function. S. cerevisiae slowed by influenza A NS1, growth recovery by OD600. Potency, µM (doses to about 46.1 µM), for inactives: at the highest dose activity, positive = more growth. 270,000 compounds, 0.4% hits. AID 2326; active means well fitted rising curve with a large enough effect; inconclusive means small, poorly fitted or top-dose-only effect; inactive means no such curve, though single readings can be large or run the other way; also: nearly all actives have a fitted effect of over 50% in size
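Compounds were scored for reversing the slow growth caused by influenza A NS1 in S. cerevisiae, measured by optical density at 600 nm. Assay medium contained 2% galactose at pH 6.0; NS1-free yeast of the same strain were the positive control.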
Marburg entry inh = Marburg virus entry inhibition. Marburg virus pseudotyped entry inhibition, cell reporter; control for the full effect not named in the record; about a third of the inactives were read at about 46 µM. 300,000 compounds, 1.8% hits. Potency, µM (titrated, usually from 37.8 µM), without a hit: at the highest dose activity change, negative = inhibition, hits mostly inhibitors; active = well fitted inhibition curve with a large enough effect; inconclusive = small, poorly fitted or top-dose-only effect, or effect the other way; inactive = flat fitted curve, though single readings scatter; tested in HEK293 cells; about a fifth of its hits are not listed in these tables; also: % is scaled to controls: 0 for no effect and ±100 for the full control effect; luciferase read-out
Cruzain inh noDet = inhibitors of Trypanosoma cruzi cruzain without detergent | purified cruzain, Z-FR-AMC fluorescence, no detergent | Potency, µM, inactives show max response, negative = inhibition, actives largely listed as inhibitors | 200,000 compounds, 2.3% hits | AID 1476;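 also: plate controls were enzyme without inhibitor for no effect and buffer without enzyme for full effect; nearly all actives have a fitted effect of over 40% in size; top concentration of the series not given in the record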
Target sequence (P25779 123-467 limits assumed): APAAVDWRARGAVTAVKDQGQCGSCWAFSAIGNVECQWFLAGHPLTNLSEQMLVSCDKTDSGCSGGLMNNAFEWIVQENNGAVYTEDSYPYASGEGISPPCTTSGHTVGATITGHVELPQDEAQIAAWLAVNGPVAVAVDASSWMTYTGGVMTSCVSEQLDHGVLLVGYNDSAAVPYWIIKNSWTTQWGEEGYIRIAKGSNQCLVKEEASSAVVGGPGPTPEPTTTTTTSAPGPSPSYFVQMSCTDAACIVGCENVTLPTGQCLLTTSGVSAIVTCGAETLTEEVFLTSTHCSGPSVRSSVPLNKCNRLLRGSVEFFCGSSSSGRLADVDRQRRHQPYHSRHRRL
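Purified cruzain at 1.5 nM, pre-incubated 15 min with compound at room temperature in 100 mM sodium acetate pH 5.5, 5 mM DTT, 0.00005% Triton X-100. Reaction started with 2 uM Z-FR-AMC; AMC fluorescence increase over 60 s gives rate.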
Cruzain Triton = cruzain (T. cruzi) inhibition with detergent; 200,000 compounds, 0.43% hits; purified cruzain, Z-FR-AMC fluorescence, 0.01% Triton; AID 1478; Potency, µM, inactives show max response, negative = inhibition, usual class: inhibitors;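 also: plate controls were neutral wells for no effect and buffer without enzyme for full effect; nearly all actives have a fitted effect of over 40% in size; top concentration of the series not given in the record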
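Cruzain (1.5 nM) preincubated 15 min at RT with compound in 100 mM sodium acetate pH 5.5, 5 mM DTT, 0.01% Triton X-100. Reaction started with 2 uM Z-FR-AMC; AMC fluorescence (ex 360/em 450 nm) change over 60 s gave rate.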
Lassa entry inh = Lassa virus entry inhibition | Potency, µM (top dose mostly 37.9 µM), without a hit: at the top dose activity change, negative = inhibition, actives largely listed as inhibitors | 300,000 compounds, 1.2% hits | Lassa virus pseudotype entry inhibition, cell reporter; control for the full effect not named in the record; active means well fitted inhibition curve with a large enough effect; inconclusive means small, poorly fitted or top-dose-only effect, or effect the other way; inactive means flat fitted curve, though single readings scatter; tested in HEK293 cells; also: % is scaled to controls: 0 for no effect and ±100 for the full control effect; nearly all actives have a fitted effect of over 50% in size; luciferase read-out
SARS PLpro yeast = inhibitors of SARS-CoV papain-like protease in yeast; S. cerevisiae expressing SARS-CoV PLpro, growth rescue; control for the full effect not named in the record; Potency, µM (top dose mostly 32.9 µM), inactives show at the highest dose activity, positive = growth rescue; 330,000 compounds, 0.19% hits; active means well fitted rising curve with a large enough effect; inconclusive means small, poorly fitted or top-dose-only effect; inactive means no such curve, though single readings can be large or run the other way; also: 0% is about no effect; nearly all actives have a fitted effect of over 55% in size; growth read by luminescence after 48 h
RE007 growth inh = less growth of the S. pombe RE007 Vpr strain. Potency, µM (titrated, usually from 92.2 µM), for the others: at the top dose activity change, negative = less growth. 360,000 compounds, 0.21% hits. S. pombe RE007 Vpr strain, BacTiter-Glo ATP luminescence, 24 h; control for the full effect not named in the record; active = well fitted falling curve with a large enough effect; inconclusive = small, poorly fitted or top-dose-only effect; inactive = no such curve, though single readings can be large or run the other way;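 also: % is scaled to controls: 0 for no effect and ±100 for the full control effect; nearly all actives have a fitted effect of over 50% in size; the assay follows cell death caused by Vpr and the record does not say whether a fall means rescue or toxicity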
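Fission yeast strain RE007, carrying one chromosomally integrated HIV-1 vpr copy, was seeded at OD 0.01 in PMG+AL medium with 23 nL pinned compound. After 24 h at 30 °C and 99% humidity, viability was read by BacTiter-Glo luminescence.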
Starred values were filed as active, the others as inactive; u = inconclusive; x = not tested or not shown; & = joins results of further samples; [ ] = remark or other dose. Unless noted, calls follow the shape of the dose curve; as a rule, active = well fitted curve in the direction sought with a large enough effect; inconclusive = small, poorly fitted or top-dose-only effect, or another doubt; inactive = no such curve, though single readings can be large; an effect the other way counts as inactive or inconclusive. Potency is read from the fitted curve at half-maximal effect.

The line under a structure holds: StopGo reporter	NS1 inh	Marburg entry inh	Cruzain inh noDet	Cruzain Triton	Lassa entry inh	SARS PLpro yeast	RE007 growth inh
(1) Cc1cc(C)nc(NS(=O)(=O)c2ccc(NC(=O)C3CC(=O)N(c4ccccc4)C3)cc2)n1 (stereo not given)
 : 22.5%	-2.0%	-2.3%	22.5%	0.5%	-1.4%	0.6%	-12.3%
(2) O=C(Nc1ccccc1SCC1CSc2nc3ccccc3c(=O)n21)c1ccccc1Cl (stereo not given)
 : -2.1%	-17.4%	u	-4.4%	1.3%	u	-2.9%	-6.0%
(3) Cc1cccc(NC(=O)c2sc3nc4c(cc3c2N)CN(C(C)C)CC4)c1
 : u	x	-11.0%[46.1 µM]	u	-5.8%	u	x	x
(4) CC(=O)Nc1ccc(S(=O)(=O)C(C#N)c2nc3ccccc3nc2NCCN2CCOCC2)cc1 (stereo not given)
 : -10.0%	4.5%	3.9%[46.1 µM]	x	x	-13.9%	4.6%	1.2%
(5) CC(=O)Oc1ccc(N(C(C)=O)S(=O)(=O)c2cccs2)c2ccccc12
 : 15.8µM*	3.0%	11.6µM*	5.0%	-3.0%	13.7%[14.3 µM]	-3.2%	-11.7%
(6) C=C1CCC(OC(C)=O)C2(C)CCC3C(C)C(=O)OC3C12O (stereo not given)
 : -14.1%	-1.4%	-13.3%[46.1 µM]	x	x	1.1%[46.1 µM]	0.2%	16.2%
(7) CC(=O)NC(=S)Nc1sc2c(c1C(N)=O)CCC(C)C2 (stereo not given)
 : 55.5%[activator]	-1.2%	u	x	x	0.1%	-0.1%	3.8%
(8) O=c1c(S(=O)(=O)c2ccc(Cl)cc2)cn(Cc2ccc(F)cc2)c2ccc(F)cc12
 : -10.6%	x	-7.6%[46.1 µM]	3.2%	-1.1%	-0.5%[46.1 µM]	x	x
(9) Cc1oc(-c2ccc(Cl)cc2)nc1CN1C(=O)CN=C(c2ccccc2)c2cc(Cl)ccc21
 : -24.6%	x	u	u	-5.7%	-7.5%[46.1 µM]	x	x
(10) CCN(CC)C(=O)c1sc(N)c(C(=O)OC(C)C)c1C
 : 20.6%	-1.9%	-3.2%	9.1%	-1.7%	-3.2%	13.9%	16.9%
(11) C1CCC(c2nn3c(-c4n[nH]c5c4CCC5)nnc3s2)CC1
 : u	14.2%	1.0%	-5.8%	-2.3%	-18.5%	-12.8%	5.9%
(12) S=c1nc(SCc2ccccc2)[nH]c2ccccc12
 : -19.2%	x	18.8%[46.1 µM]	x	x	18.8%	u	4.6%
(13) COc1ccc(OC(=O)Nc2ccccc2)cc1
 : 64.1%[activator]	-13.0%	u	0.2%	2.9%	0.8%	-2.9%	10.7%
(14) COc1ccc(NC2=NC(=S)N(c3ccc(C)cc3)C23CCCCC3)cc1
 : 4.2%	18.2%	-16.3%	-0.8%	4.3%	-30.4%	2.1%	0.9%
(15) CCCNC(=O)c1ccc(N2CCC3(CC2)CC(c2cccc(Br)c2)=NO3)c([N+](=O)[O-])c1
 : u	-30.7%	x	x	x	x	-5.8%	-18.1%
(16) CC(=O)c1cccc(NC(=O)Cn2nc(C(F)(F)F)c3c2CCC3)c1
 : -17.5%	x	-1.8%[46.1 µM]	9.3%	-4.9%	-2.1%[46.1 µM]	x	x
(17) COc1ccc(C(=O)Nc2nnc(S(=O)(=O)N3CCC(C)CC3)s2)cc1OC
 : -2.1%&-11.2%	-0.7%	x	3.0%	-4.3%	u	u	6.5%
(18) CCOC(=O)N1CCN(CC(=O)c2ccc(O)c(C)c2O)CC1
 : 28.9%	7.8%	x	x	x	x	-1.5%	-17.2%
(19) CCOc1ccc(-c2[nH]ncc2-c2ccc(OC)c(OC)c2)c(O)c1
 : 0.0%	u	u	-11.0%	-4.8%	u	-8.2%	11.9%
(20) CC(C)Oc1ccc(C(=O)N2CCCC2C(=O)O)cc1 (stereo not given)
 : 0.9%	0.7%	-5.6%	-6.7%	3.6%	u	2.5%	2.4%
(21) CCOC(=O)CSc1ccc(C(=O)N2CCN(C)CC2)cc1[N+](=O)[O-]
 : -0.3%	x	5.1%[46.1 µM]	x	x	x	-5.2%	4.2%
(22) Cc1ccc(-c2noc(CN(C(=O)c3cccc(Br)c3)C(C)C)n2)cc1
 : 0.0%	-80.2%	x	11.0%	-2.6%	x	-9.7%	-0.2%
(23) CCOC(=O)C(C)Oc1c(Br)cc(C2NC(=O)NC(C)=C2C(C)=O)cc1OCC (stereo not given)
 : -5.3%	8.2%	-17.1%	0.5%	1.1%	0.4%	16.3%	-3.0%
(24) CCCn1c(=N)n(CC(O)COc2cccc(C)c2)c2ccccc21 (stereo not given)
 : u	4.0%	8.2µM*	0.8%	1.3%	-19.9%	7.1%	-2.1%
(25) CC(C(=O)N=c1sc2ccccc2n1C)N1C(=O)C2CC=CCC2C1=O (stereo not given)
 : 2.5%	-10.3%	24.8%	-10.9%	2.6%	2.9%	-3.4%	9.5%
(26) Cc1ccc(NC(=O)Cc2coc3ccc(C(C)C)cc23)c(C)c1
 : 0.0%	x	u	-4.1%	-13.8%	-10.0%[46.1 µM]	x	x
(27) CC(=O)Nc1c(O)nc(SCc2ccc(Cl)cc2)[nH]c1=O
 : 0.0%	1.6%	14.2%	9.3%	-0.9%	u	11.2%	-12.8%
(28) CC(OC(=O)c1cccc(-n2cnnn2)c1)C(=O)Nc1ccc(F)c(F)c1F (stereo not given)
 : -13.2%	x	3.0%[46.1 µM]	x	x	3.5%	x	-10.1%
(29) CCCN(C(=O)c1ccccc1N)c1c(C)n(C)n(-c2ccccc2)c1=O
 : -14.4%	-16.0%	-1.7%	-3.0%	7.8%	2.8%	-5.4%	-5.6%
(30) O=C(NCCN1C(=O)S/C(=C\c2ccc(Cl)cc2)C1=O)c1ccc(F)c(S(=O)(=O)N2CCOCC2)c1
 : 8.4%	8.7%	7.3%	u	-11.7%	3.8%	2.4%	0.4%
(31) O=C(CN1CCC(NC(=O)C2CC2)CC1)Nc1ccccc1[N+](=O)[O-]
 : -28.3%	-61.5%	u	x	x	x	-1.4%	7.2%
(32) CC(C)N1CCN(Cc2ccc3nsnc3c2)CC1CCO (stereo not given)
 : -6.4%	-2.4%	7.8%[46.1 µM]	x	x	4.2%[46.1 µM]	1.2%	-13.4%
(33) O=c1c2c3c(sc2nc(NCCO)n1Cc1ccco1)CCCCC3
 : 18.4%	-16.5%	u	u	-13.6%	18.9%[46.1 µM]	-14.9%	-2.2%
(34) COc1ccc(NC(=O)CSc2nc3c(c(=O)n2-c2ccc(C)cc2)SCC3)c(OC)c1
 : -8.5%	-13.7%	-8.0%	-3.8%	-12.8%	u	u	-0.4%
(35) NS(=O)(=O)c1ccc(NC(=O)CSc2nnc(-c3cnccn3)n2-c2ccccc2)cc1
 : -11.4%	-21.8%	-0.5%&-0.5%	u	1.6%	1.0%	x	22.2%
(36) CC(=O)OC(C#CCN1CCOCC1)c1ccccc1 (stereo not given)
 : 2.3%	11.1%	4.0%	-4.4%	5.1%	25.4%	x	-19.4%[3.69 µM]
(37) CCc1ccc(NCc2cc3cc4c(cc3n(CC(=O)Nc3ccccc3Cl)c2=O)OCO4)cc1
 : 6.1%	x	x	-6.3%	-3.8%	-4.3%[46.1 µM]	x	x
(38) COc1ccc(N2CC(C(=O)Nc3ccc([N+](=O)[O-])cc3Br)CC2=O)cc1 (stereo not given)
 : 36.7%[activator]	-22.3%	-9.6%[46.1 µM]	x	x	-11.9%[46.1 µM]	-16.5%	3.7%
(39) COc1ccc(CNC(=O)C(C)OC(=O)c2cccn2C)cc1 (stereo not given)
 : 10.3%	-9.8%	28.1%	-2.3%	0.7%	u	0.1%	0.3%
(40) CCN1CCN(CCNC(=O)CSCc2nc(-c3ccc(OC)c(OC)c3)oc2C)CC1
 : 2.1%	8.2%	-16.4%[46.1 µM]	-1.9%	3.4%	-12.7%	6.4%	19.1%
(41) Cc1ccccc1-c1cc(-c2ccccc2O)on1
 : 18.0%	-75.0%	u	-10.0%	-5.1%	u	-37.8%	-28.8%
(42) CC1CCCC(C)N1CCCNC(=O)Cn1c(=O)c2cccn2c2cccnc21 (stereo not given)
 : 3.3%	19.1%	9.1%[46.1 µM]	x	x	7.8%[46.1 µM]	1.3%	7.2%
(43) O=C1CCC([N+](=O)[O-])C(c2cc3c(cc2Br)OCO3)N1 (stereo not given)
 : -15.2%	15.5%	23.6%	4.5%	-2.1%	-0.4%	15.1%	5.4%
(44) COc1ccccc1N1CCN(CCCNC(=O)c2cnn(-c3ccccc3)c2C2CCN(C(=O)OC(C)(C)C)CC2)CC1
 : -8.3%	x	x	-2.4%	-1.2%	u	x	x
(45) COc1ccc(NC(=O)c2ccc(OCC3CCCO3)cc2)cc1Cl (stereo not given)
 : -8.9%	x	u	x	x	-8.6%	-4.4%	0.0%
(46) O=C(Nc1nc2ccc(F)cc2s1)C1CCN(S(=O)(=O)c2cc([N+](=O)[O-])ccc2Cl)CC1
 : 20µM*	29.8%	u	10µM*	-7.7%	u	0.3%	-16.7%
(47) COc1ccc(-n2nc(C(=O)NCc3ccco3)c3c4ccccc4n(C)c3c2=O)cc1
 : -13.6%	-4.2%	0.3%	u	-13.9%	2.0%	-5.8%	9.9%
(48) C=CCn1cc(/C=N/Nc2nc3ccccc3[nH]2)c2ccccc21
 : -71.3%	9.6%	u	u	-23.1%	4.47µM*	3.1%	-22.8%
(49) Cc1c(CCOC(=O)c2ccccc2)sc[n+]1CC(=O)c1ccc(Br)cc1
 : -26.0%	u	-28.6%[46.1 µM]	x	x	x	4.4%	-11.5%
(50) Cc1nsc(Nc2ccccc2)c1C#N
 : -3.5%	x	10.7%	x	x	-17.4%	1.5%	-6.2%
(51) Cc1ccccc1Nc1c(-c2c(F)cccc2Cl)nc2ccc(Br)cn12
 : -8.1%	x	4.5%[46.1 µM]	0.6%	-1.7%	7.4%[46.1 µM]	x	x
